Menin-MLL FL inh: menin-MLL binding inhibition, fluorescein peptide; Fluorescence polarization, fluorescein-MLL peptide displacement from menin; 290,000 tested, under 10 active; FP activity change, % at 61.4 µM; AID 1766; inconclusive = falling polarisation curve, or a change in total fluorescence; inactive = total fluorescence flat and polarisation flat or rising; no compound was filed as active; the % refers to the polarisation; negative = inhibition;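 also: % of control where 0% means no effect; inhibitors lower the polarisation; unlabelled MLL peptide was the positive control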
TRPV1 PAM: human TRPV1 potentiation | AID 540277 | actives 0.02% (n = 320,000) | potentiation, % at 8.33 µM | Q8NER1 | TRPV1-expressing cells, Fluo-8 calcium influx, capsaicin EC20 potentiation; host cell line not named in the record; control for the full effect not named in the record; active means potentiation above 80%; inconclusive means 30% to 80%; inactive means below 30%; also: 0% is about no effect
Target sequence (Q8NER1 whole entry, looked up): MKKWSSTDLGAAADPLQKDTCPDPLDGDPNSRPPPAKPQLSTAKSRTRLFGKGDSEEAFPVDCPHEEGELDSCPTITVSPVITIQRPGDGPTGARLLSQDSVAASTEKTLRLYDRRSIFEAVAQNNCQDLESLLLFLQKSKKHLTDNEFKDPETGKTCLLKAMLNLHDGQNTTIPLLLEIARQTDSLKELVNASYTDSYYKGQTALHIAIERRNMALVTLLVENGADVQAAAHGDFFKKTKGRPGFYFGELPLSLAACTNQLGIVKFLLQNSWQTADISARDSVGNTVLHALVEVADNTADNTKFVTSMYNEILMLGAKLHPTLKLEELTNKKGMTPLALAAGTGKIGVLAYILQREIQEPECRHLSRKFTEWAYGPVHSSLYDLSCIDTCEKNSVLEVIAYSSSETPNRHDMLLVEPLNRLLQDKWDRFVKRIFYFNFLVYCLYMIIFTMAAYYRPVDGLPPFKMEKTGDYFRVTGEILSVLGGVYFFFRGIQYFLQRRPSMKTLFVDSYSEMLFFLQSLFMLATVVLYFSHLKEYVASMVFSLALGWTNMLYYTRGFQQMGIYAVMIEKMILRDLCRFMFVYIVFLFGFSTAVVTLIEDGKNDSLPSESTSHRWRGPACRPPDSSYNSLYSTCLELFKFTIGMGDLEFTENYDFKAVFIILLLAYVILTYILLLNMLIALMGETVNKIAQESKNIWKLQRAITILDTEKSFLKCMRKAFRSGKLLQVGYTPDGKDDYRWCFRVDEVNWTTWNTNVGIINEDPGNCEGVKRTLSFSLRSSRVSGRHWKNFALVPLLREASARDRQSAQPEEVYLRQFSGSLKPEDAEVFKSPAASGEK
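Fluo-8 calcium influx in TRPV1-expressing cells, kinetic read (ex 480/em 520 nm). Compound added and read 3 min for agonist activity, followed by capsaicin at EC20 final and 2 min further read for enhancement.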
TRPML1 ag: activates the human TRPML1 channel; Q9GZU1; TRPML1-expressing cells, Ca2+ dye fluorescence, FDSS; host cell line not named in the record; reference of the full effect not given here; activation, % (concentration not given with the values); actives 0.12% (n = 410,000); in the data active = activation above about 50%; inconclusive = about 30% to 50%; inactive = below about 30%; also: 0% is about no effect; the text of the record puts the active cut at 80%
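Calcium fluorescence on an FDSS kinetic reader gave the read-out. Tet-induced TRPML1-DL cells were plated overnight, dye-loaded (Ca8 with quencher, 45-90 min, room temperature, dark), then read 110 s after compound addition, and again 110 s after 4uM final 54-4 (EC80).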
TRPML1 inh: inhibitors of human TRPML1 channel; Q9GZU1; TRPML1-inducible cells, Ca2+ dye fluorescence, FDSS; active compounds read low; inhibition of EC80 agonist-evoked calcium signal; activity change, negative = inhibition, % (test concentration not listed); actives 0.02% (n = 390,000); AID 624415; in the data active means activity change below about -50%; inconclusive means about -30% to -50%; inactive means above about -30%;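 also: stimulus is agonist 54-4 at its EC80 concentration; % is scaled to controls: 0 for no effect and ±100 for the full control effect; compound concentration not given in the record; the text of the record puts the active cut at -80%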
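Tet-induced TRPML1-DL cells loaded with Ca8 no-wash calcium dye were read kinetically on FDSS. Compound addition was followed by EC80 agonist 54-4 (4 uM final); inhibition was read over 110 s.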
PINK1 modulator: PINK1 expression modulation; actives 0.2% (n = 410,000); Potency, µM (highest dose often 76.6 µM), without a hit: at the highest dose activation (PINK1 increase), hits mostly activators; PINK1 immunofluorescence, high-content cytometry, 24 h; active = well fitted activation curve with a large enough effect; inconclusive = small, poorly fitted or top-dose-only effect; inactive = flat fitted curve, though single readings scatter; cell line not stated here;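 also: potency is read from the fitted curve at half-maximal effect; % of control where 0% means no effect; nearly all actives have a fitted effect of over 65% in size; a mitochondrial uncoupler was the plate control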
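Stable cell line, 250 cells/well, 12 h attachment; compounds pinned at 5 concentrations, 24 h; CCCP control. Fixed with nuclear dye, primary antibodies 12 h at 10 degrees C, secondary plus cell stain; laser-scanning cytometer read.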
Sfp inh: Sfp phosphopantetheinyl transferase inhibition | Biochemical Sfp PPTase activity, qHTS | Potency, µM, for inactives: max response, negative = inhibition, most hits filed as inhibitors | actives 3.5% (n = 310,000) | AID 1490; active = well fitted inhibition curve with a large enough effect; inconclusive = small, poorly fitted or top-dose-only effect, or another doubt; inactive = no such curve, though single readings can be large or run the other way;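 also: the enzyme is Sfp with the accession as filed and its product quenches rhodamine fluorescence; potency is read from the fitted curve at half-maximal effect; 0% = enzyme reaction without inhibitor and -100% = no enzyme wells; top concentration of the series not given in the record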
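With Hepes-Na pH 7.6 buffer containing 10 mM MgCl2, Sfp (15 nM) modified BHQ-2-YbbR (12.5 uM) using rhodamine-CoA (5 uM). Two reads 30 minutes apart at 525/598 nm yielded each well's rate.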
ClpP mod: qHTS Assay for Activators of ClpP; ATP-dependent Clp protease proteolytic subunit (Bacillus subtilis (strain 168)), P80244; purified B. subtilis ClpP, FRET peptide cleavage, 20 min; Potency, µM (top dose mostly 57.5 µM), without a hit: top-dose activity change, negative = active; actives 1.9% (n = 340,000); active = well fitted falling curve with a large enough effect; inconclusive = small, poorly fitted or top-dose-only effect; inactive = no such curve, though single readings can be large or run the other way; also: potency is read from the fitted curve at half-maximal effect; the source files actives as falling curves though it sought activators and does not explain the sign; nearly all actives have a fitted effect of over 65% in size; many hits overshoot -100%
Target sequence (P80244 whole entry, looked up): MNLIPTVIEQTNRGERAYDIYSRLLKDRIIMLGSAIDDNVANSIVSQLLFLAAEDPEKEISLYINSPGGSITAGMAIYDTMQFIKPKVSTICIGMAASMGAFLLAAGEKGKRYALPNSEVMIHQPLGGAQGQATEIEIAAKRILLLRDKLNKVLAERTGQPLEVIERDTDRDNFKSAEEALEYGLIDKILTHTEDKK
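FRET quenching reversal measured ClpP activation: 10 microg/mL B. subtilis ClpP at pH 8 with the FRET-FV decapeptide, read at 430 nm after 320 nm excitation. The 20-min minus 0-min signal was scaled between DMSO/no-enzyme wells and ADEP (5.8 microM final).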
* = called active by the depositor; ? = inconclusive; . = no result given; & = joins results of further samples; [ ] = another dose, or the depositor's remark. Rows were taken by chance; overall some 4.4% were active at least once.

| smiles | Menin-MLL FL inh | TRPV1 PAM | TRPML1 ag | TRPML1 inh | PINK1 modulator | Sfp inh | ClpP mod |
| --- | --- | --- | --- | --- | --- | --- | --- |
| Cc1ccc(C(O)c2ncc(-c3ccccc3)[nH]2)c(C)c1 (configuration not stated) | . | . | -1.3 | . | -0.9% | . | 0.2% |
| COc1ccc(-c2cc(C(=O)N3CCCCC3C)no2)cc1OC (configuration not stated) | . | . | 2.4 | -11 | -0.6% | . | -4.2% |
| Cn1c(CNc2cccc(Cl)c2)nnc1SCC#N | -0.8 | -3 | 0.5 | -6 | 1.4% | 26% | . |
| CC(=O)[C@@]1(O)CCC2C3CC[C@H]4C[C@@H](O)CC[C@]4(C)C3CC[C@@]21C (some centres not stated) | . | . | -0.6 | -7 | 0.1% | . | . |
| COc1ccc(NC(=O)/C(C#N)=C/c2ccc3c(c2)n(C)c(=O)n3C)cc1 | 5.4 | -9 | 0.2 | -19 | -1.5% | 3% | 73% |
| CCOc1ccc(S(=O)(=O)N2CCC(N3CCN(Cc4ccc(C)cc4)C(=O)C3=O)CC2)cc1 | . | . | -1.1 | -1 | 1.5% | . | 2.2% |
| Cc1ccc([C@@H]2CC=C(C(=O)O)[C@H](c3cccc(Cl)c3)N2S(=O)(=O)c2ccccc2C)cc1 | . | . | 1.4 | 3 | -1.0% | . | 1.8% |
| O=C(N=C1SC2CS(=O)(=O)CC2N1c1ccccc1)C1CC1 (configuration not stated) | . | 7 | 3.7 | 4 | 3.3% | 16% | -0.4% |
| CN(CC(=O)Nc1ccc(C(N)=O)cc1)CC(=O)Nc1ccccc1Br | 5.6 | -15 | 0.2 | -23 | 0.1% | 4% | 2.3% |
| Cc1ccc(C(=O)N2CCN(S(=O)(=O)c3ccc(Br)cc3)CC2)o1 | 2.6 | 9 | -0.9 | 2 | 0.3% | 4% | -9.8% |
| Cc1cc(-c2nnc(SCC(=O)Nc3cccc(C)c3C)n2N)n[nH]1 | . | -5 | 0.4 | 12 | -1.1% | 0% | -1.2% |
| COC(=O)[C@]12CCCCC=C1N(Cc1ccco1)C(=O)[C@H](CC(=O)N1CCN(C(=O)c3ccco3)CC1)C2 | . | . | -0.7 | . | -0.5% | . | 0.0% |
| N#Cc1cccc(NC(=O)C2CCN(S(=O)(=O)c3ccc4c(c3)CCCN4C(=O)C3CCC3)CC2)c1 | . | . | -0.2 | -11 | -0.7% | . | -0.9% |
| CCCN1CCc2nc(N3CCN(CC)CC3)ncc2C1 | . | . | 0.7 | -23 | -0.2% | . | -4.8% |
| Cc1ccc(-n2c(Cn3nc(C(F)F)cc3C(F)F)n[nH]c2=S)cc1 | 5.7 | 3 | 0.1 | 8 | 2.0%[38.3 µM] | 13% | -1.1% |
| CCN1CCN(CC(=O)N/N=C/c2ccc(F)cc2F)CC1 | . | -10 | -0.2 | -12 | -0.9% | -28% | -15% |
| CC(NC(=O)COC(=O)Cc1ccccc1[N+](=O)[O-])c1ccccc1 (configuration not stated) | 5.1 | -14 | -0.9 | -20 | -2.1% | -7% | 0.5% |
| CCS(=O)(=O)N1CCC(NC(=O)C2CCCCC2)CC1 | -1.7 | -1 | 0.4 | 31 | -0.3% | 18% | -2.9% |
| COc1ccc(-n2c(C)cc(=O)[nH]c2=O)cc1 | 2.7 | -10 | 0.0 | 12 | -1.3% | 0% | 0.0% |
| CC(C)(C)c1cnnn1-c1cccc([N+](=O)[O-])c1 | 0.5 | 5 | -0.4 | 28 | -3.3% | 21% | . |
| O=C(O)c1cccc(NC(=O)c2ccccc2NC(=O)c2cccs2)c1 | . | . | -1.1 | 18 | -1.3% | . | 1.7% |
| O=[N+]([O-])c1c(NCCCO)cc(N2CCCCCC2)c2nonc12 | -8.2 | -4 | 0.1 | 65 | 1.0% | -9% | -24% |
| CC(C)c1cccc(C(C)C)c1NC(=O)CCN1C(=O)NC2(CCCC2)C1=O | . | -3 | 1.3 | 29 | -1.3% | . | -2.3% |
| COc1ccc2oc(=N)c(C(=O)Nc3ccccc3Cl)cc2c1 | 0.0 | -2 | -0.8 | -13 | 9.1% | 4% | 2.7% |
| Cc1ccc2[nH]c(=O)c(NC(N)=S)nc2c1 | 3.4 | 25 | -0.3 | -2 | 4.1%[38.3 µM] | -19% | -0.6% |
| CCCCN1CC[C@H]2C=CC[C@@H](C(=O)N3CCOCC3)[C@H]2C1=O | . | . | 0.4&-0.4 | -4 | -0.2% | . | -1.4%&0.3% |
| COc1ccc(C)cc1NC(=O)CSc1nc(=O)n(Cc2ccncc2)c2c1CCC2 | . | . | 0.6 | -3 | -0.3% | . | -4.2% |
| O=C(O)CN1C(=O)CC(Cc2ccccc2)C1=O (configuration not stated) | 2.2 | 3 | -0.5 | 16 | 0.3% | 20% | -1.6% |
| COc1ccc(C(=O)NC2CCCCC2)cc1OC1CCN(C(C)C)CC1 | . | -9 | 0.1 | 12 | -0.7% | 12% | -0.6% |
| O=C(Cc1cccs1)Nc1nnc(Cc2ccccc2)s1 | 1.0 | -4 | 0.7 | 11 | 14% | 6% | 1.4% |
| COc1ccc(C2=Nn3c(nnc3-c3ccccc3)SC2)cc1OC | -1.8 | 0 | -0.4 | 4 | 6.9%[38.3 µM] | 16% | -0.6% |
| Cc1ccc(C(NC(=O)C2CCN(CCOc3ccccc3)CC2)c2ccccn2)cc1 (configuration not stated) | . | . | -0.5 | . | 0.5% | . | 0.0% |
| CCNc1nc2c(c(=O)n(C)c(=O)n2C)n1CCCc1ccccc1 | -1.7 | 1 | -0.5 | -4 | 0.3% | 17% | . |
| COC(=O)c1ccccc1NC(=O)c1ccc(NS(C)(=O)=O)cc1 | 2.4 | 15 | -1.6 | 16 | -1.7% | 7% | 1.2% |
| Cc1cc(Cl)ccc1NC(=S)Nc1cccnc1 | 0.3 | 17 | 0.9 | 0 | 1.9% | -1% | -11% |
| CC(C)CC[n+]1ccn(-c2nc3ccccc3nc2[N-]S(=O)(=O)c2ccccc2)c1 | 10 | -21 | -0.6 | -3 | -3.8%[38.3 µM] | 79µM* | ? |
| O=[N+]([O-])c1ccccc1/C=N/n1c(-c2ccccc2)n[nH]c1=S | -0.8 | 16 | 2.0 | 12 | 1.8% | -13% | . |
| O=C(CSc1nnc(-c2ccccc2)o1)OCc1ccccc1 | 2.7 | 1 | 0.5 | -8 | 2.8% | 20% | 0.9% |
| COc1cccc(NC(=O)CN(C)C(=O)c2cccc(S(=O)(=O)Nc3ccccc3OC)c2)c1 | . | -6 | 1.9 | 2 | 0.6% | . | -1.9% |
| CCOC(=O)c1c(Oc2ccc(C(C)=O)cc2)nnc(-c2ccccc2)c1-c1ccccc1 | . | . | 1.3 | -18 | 0.6% | . | -3.6% |
| COc1cc(OC)c(C(=O)OCC(=O)Nc2cccc(S(=O)(=O)NC3=NCCCCC3)c2)cc1OC | . | . | 1.6 | -9 | 2.1% | . | -0.7% |
| CCCCN1CC2=C(C1=O)C(c1ccc(O)cc1)NC(=O)N2C (configuration not stated) | -1.0 | 7 | -0.1 | 8 | 0.6% | -1% | -1.9% |
| Cc1c(F)cccc1NS(=O)(=O)c1ccc2c(c1)c(C)cc(=O)n2C | . | 14 | 0.3 | 12 | 2.4% | -9% | -4.2% |
| CCOC(=O)CSCC(=O)N1CCC(Cc2ccccc2)CC1 | 0.4 | -1 | 0.1 | 6 | 3.2% | 1% | . |
| CN(C)C(CNC(=O)c1cc(S(=O)(=O)N(C)c2ccc(F)cc2)ccc1Cl)c1cccs1 (configuration not stated) | . | . | 0.3 | -8 | -1.8% | . | ? |
| Cc1c(C=O)c2ccccn2c1C(=O)c1cccs1 | ? | 9 | 0.5 | 6 | -1.2% | ? | -2.0% |
| CCOC(=O)N1CCC(N2C(=O)c3ccccc3C2Nc2cc(OC)c(OC)c(OC)c2)CC1 (configuration not stated) | -2.2 | 5 | 0.8 | 22 | 7.0% | 23% | -2.3% |
| CCC(c1ccc(O)cc1)C(CC)c1ccc(O)cc1 (configuration not stated) | 0.9 | -6 | 3.3 | 55 | 2.8% | -2% | -0.4% |
| CN(Cc1cccc(F)c1)C(=O)c1ccc(NS(=O)(=O)c2ccc3[nH]c(=O)[nH]c3c2)cc1 | . | 7 | -0.1 | -10 | 7.9% | . | -3.2% |
| COc1ccc2cc(C(=O)C3CCCN(C(=O)c4cccnc4)C3)ccc2c1 (configuration not stated) | 1.7 | -5 | 1.2 | -5 | 0.4% | 1% | 3.6% |
| Cc1nc(-c2ccc(Cl)cc2)sc1C1(C)CC(c2ccc(F)cc2)=NO1 (configuration not stated) | -2.6 | 6 | -0.4 | 70 | 1.4% | -4% | ? |
| Cc1cccc(C(=O)N2CCN(c3ccc([N+](=O)[O-])c(NCc4ccco4)c3)CC2)c1 | 1.1 | 11 | 1.7 | -7 | 1.5% | -1% | 0.2% |
| CC(=O)c1cccc(NC(=O)C(C)n2c(=O)cc(C)c3c(C)nn(-c4ccccc4)c32)c1 (configuration not stated) | . | . | 1.8 | 6 | 4.1% | . | -2.0% |
| CCOC(=O)CSC1=C(C#N)C(c2ccc(F)cc2)C(C(C)=O)=C(C)N1 (configuration not stated) | 12 | 13 | 0.9 | 5 | -1.6%[38.3 µM] | ? | -0.6% |
| Brc1ccc2c(c1)C(c1cccs1)=NNC(c1cccnc1)=N2 | 2.4 | -12 | -1.3 | 0 | -4.5% | 13% | 1.3% |
| N#Cc1cccc(Nc2ncnc3c2cnn3-c2cccc(Cl)c2)c1 | . | . | -0.9 | -16 | 1.6% | . | -6.9% |
| COc1ccc(S(=O)(=O)N2CCN(C(=O)c3cccs3)CC2)cc1 | 5.5 | 0 | -1.1 | 7 | -3.0% | 12% | -1.7% |
| Cc1ccc(CCC(=O)Nc2ccc(Cl)cc2)o1 | 2.2 | 11 | 1.0 | 1 | 9.3% | 7% | . |
| CCn1ccnc1CN(C)C(=O)CCc1nnc(CCCc2ccccc2)o1 | 0.8 | -8 | 1.8 | 0 | 0.0% | 0% | -2.5% |
| O=C(NC(Cc1ccccc1)C(=O)Oc1ccc2c(C(F)(F)F)cc(=O)oc2c1)OCc1ccccc1 (configuration not stated) | ? | 11 | 13 | 19 | 2.2% | 10% | -6.5% |

Assay outcomes (PubChem)
